Lassa entry inh – Lassa virus entry inhibition | Lassa virus pseudotype entry inhibition, cell reporter; control for the full effect not named in the record | Potency, µM (doses to about 37.9 µM), inactives show top-dose activity change, negative = inhibition, actives largely listed as inhibitors | hit rate 1.2% among 300,000; active means well fitted inhibition curve with a large enough effect; inconclusive means small, poorly fitted or top-dose-only effect, or effect the other way; inactive means flat fitted curve, though single readings scatter; tested in HEK293 cells; also: % is scaled to controls: 0 for no effect and ±100 for the full control effect; nearly all actives have a fitted effect of over 50% in size; luciferase read-out
Cruzain Triton – inhibitors of Trypanosoma cruzi cruzain with detergent | P25779 | purified cruzain, Z-FR-AMC fluorescence, 0.01% Triton | Potency, µM, for the others: max response, negative = inhibition, most hits filed as inhibitors | hit rate 0.43% among 200,000; active = well fitted curve in the direction sought with a large enough effect; inconclusive = small, poorly fitted or top-dose-only effect, or another doubt; inactive = no such curve, though single readings can be large; an effect the other way counts as inactive or inconclusive;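 also: plate controls were neutral wells for no effect and buffer without enzyme for full effect; nearly all actives have a fitted effect of over 40% in size; top concentration of the series not given in the record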
Target sequence (P25779 123-467 limits assumed): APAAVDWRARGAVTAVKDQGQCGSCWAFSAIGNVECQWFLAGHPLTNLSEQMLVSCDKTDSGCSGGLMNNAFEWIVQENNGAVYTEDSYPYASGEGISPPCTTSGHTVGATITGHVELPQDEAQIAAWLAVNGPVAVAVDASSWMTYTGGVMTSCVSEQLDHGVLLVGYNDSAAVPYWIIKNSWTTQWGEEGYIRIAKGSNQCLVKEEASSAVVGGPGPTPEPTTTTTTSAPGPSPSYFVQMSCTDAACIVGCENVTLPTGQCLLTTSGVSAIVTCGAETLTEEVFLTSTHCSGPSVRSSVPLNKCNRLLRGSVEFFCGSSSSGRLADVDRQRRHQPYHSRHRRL
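Purified cruzain (1.5 nM final) was preincubated with compounds for 15 min at room temperature in 100 mM sodium acetate pH 5.5, 5 mM DTT, 0.01% Triton X-100. Reaction started with 2 uM Z-FR-AMC; AMC fluorescence change over 60 s gave activity.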
Cruzain inh noDet – cruzain (T. cruzi) inhibition without detergent; P25779; purified cruzain, Z-FR-AMC fluorescence, no detergent; Potency, µM, for inactives: max response, negative = inhibition, usual class: inhibitors; hit rate 2.3% among 200,000; active = well fitted curve in the direction sought with a large enough effect; inconclusive = small, poorly fitted or top-dose-only effect, or another doubt; inactive = no such curve, though single readings can be large; an effect the other way counts as inactive or inconclusive;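 also: plate controls were enzyme without inhibitor for no effect and buffer without enzyme for full effect; nearly all actives have a fitted effect of over 40% in size; top concentration of the series not given in the record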
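Purified cruzain at 1.5 nM, pre-incubated 15 min with compound at room temperature in 100 mM sodium acetate pH 5.5, 5 mM DTT, 0.00005% Triton X-100. Reaction started with 2 uM Z-FR-AMC; AMC fluorescence increase over 60 s gives rate.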
Marburg entry inh – blocks Marburg virus binding to or entry into cells. Marburg virus pseudotyped entry inhibition, cell reporter; control for the full effect not named in the record; about a third of the inactives were read at about 46 µM. Potency, µM (highest dose often 37.8 µM), for inactives: top-dose activity change, negative = inhibition, hits mostly inhibitors. hit rate 1.8% among 300,000; active = well fitted inhibition curve with a large enough effect; inconclusive = small, poorly fitted or top-dose-only effect, or effect the other way; inactive = flat fitted curve, though single readings scatter; tested in HEK293 cells; about a fifth of its hits are not listed in these tables; also: % is scaled to controls: 0 for no effect and ±100 for the full control effect; luciferase read-out
RE007 growth inh – less growth of the S. pombe RE007 Vpr strain. Potency, µM (highest dose often 92.2 µM), for the others: at the top dose activity change, negative = less growth. hit rate 0.21% among 360,000. AID 651644. S. pombe RE007 Vpr strain, BacTiter-Glo ATP luminescence, 24 h; control for the full effect not named in the record; active = well fitted falling curve with a large enough effect; inconclusive = small, poorly fitted or top-dose-only effect; inactive = no such curve, though single readings can be large or run the other way;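 also: % is scaled to controls: 0 for no effect and ±100 for the full control effect; nearly all actives have a fitted effect of over 50% in size; the assay follows cell death caused by Vpr and the record does not say whether a fall means rescue or toxicity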
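Fission yeast RE007 carrying one integrated HIV-1 vpr copy, seeded at OD 0.01 in PMG+AL medium with 23 nL pinned compound. Grown 24 h at 30 degrees; viability read by BacTiter-Glo luminescence after 5 min.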
SARS PLpro yeast – blocks SARS-CoV papain-like protease in a yeast assay; AID 485353; hit rate 0.19% among 330,000; S. cerevisiae expressing SARS-CoV PLpro, growth rescue; control for the full effect not named in the record; Potency, µM (doses to about 32.9 µM), inactives show at the top dose activity, positive = growth rescue; also: 0% is about no effect; nearly all actives have a fitted effect of over 55% in size; growth read by luminescence after 48 h
NS1 inh – blocks influenza NS1 protein function; S. cerevisiae slowed by influenza A NS1, growth recovery by OD600; Potency, µM (titrated, usually from 46.1 µM), for the others: top-dose activity, positive = more growth; hit rate 0.4% among 270,000; AID 2326; also: actives are rising curves; nearly all actives have a fitted effect of over 50% in size
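Read-out: OD600 growth recovery of NS1-expressing budding yeast. Cells grown overnight at 30C in -URA glucose medium, washed, resuspended and diluted 1:100 in 2% galactose assay medium, pH 6.0. Same strain lacking NS1 served as positive control.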
2A StopGo – FMDV 2A StopGo reporter, luciferase signal; human cells with a luciferase reporter of 2A StopGo recoding; control for the full effect not named in the record; Potency, µM (series often up to 57.9 µM), for inactives: top-dose signal change, negative = less light; hit rate 1.2% among 410,000; active = well fitted falling curve with a large enough effect; inconclusive = small, poorly fitted or top-dose-only effect; inactive = no such curve, though single readings can be large or run the other way; tested in HEK293T cells; also: % is scaled to controls: 0 for no effect and ±100 for the full control effect; nearly all actives have a fitted effect of over 45% in size; luciferase light after 4 h
* marks the source's active call; other numbers are inactive results; u = inconclusive; x = not tested or not shown; & = joins results of further samples; [ ] = remark or other dose. Unless noted, calls follow the shape of the dose curve; as a rule, active means well fitted rising curve with a large enough effect; inconclusive means small, poorly fitted or top-dose-only effect; inactive means no such curve, though single readings can be large or run the other way. Potency is read from the fitted curve at half-maximal effect.

Sequence of screens: Lassa entry inh	Cruzain Triton	Cruzain inh noDet	Marburg entry inh	RE007 growth inh	SARS PLpro yeast	NS1 inh	2A StopGo
#1 CC(CCc1ccccc1)NC(=O)COC(=O)c1ccc(NC(=O)CC#N)cc1 (stereo not given)
    x	x	x	x	4%	2%	4%	4%
#2 Cc1ccc(C)c(CN2C(=O)c3ccccc3S(=O)(=O)c3ccc(C(=O)NCCc4ccc(Cl)cc4)cc32)c1
    7%[46.1 µM]	5.4%	10µM*	u	x	x	x	-6%
#3 COc1cccc(NC(=S)C(C#N)=C2N(C)c3ccccc3N2C)c1
    6%	x	x	u	-7%	-3%	x	5%
#4 CCCn1c(SCC(=O)Nc2sc(C)c(C)c2C(=O)OCC)nc2c1c(=O)n(C)c(=O)n2C
    -8%	0.5%	-7%	u	3%	-7%	-3%	-3%
#5 COc1cccc(Cn2c(CNC(=O)CCc3ccccc3)nc3cccnc32)c1
    u	-2.3%	-1%	x	x	x	x	2%
#6 O=C(Nc1ccc(Cl)cc1)/C(=C/c1cccc(O)c1)c1nc2ccccc2s1
    u	-6.0%	-25%	u	-3%	-10%	8%	10µM*
#7 N#CC1=C(N)Oc2cc(O)ccc2C1c1cccs1 (stereo not given)
    -15%	-8.1%	-7%	-19%	8%	7%	2%	u
#8 CCCCc1nn2c(=O)cc(COC(=O)c3cccc(NC(=O)c4cccs4)c3)nc2s1
    -3%[46.1 µM]	0.1%	0%	x	x	x	x	5%
#9 Cc1[nH]c2ccccc2c1/C=N/NC(=O)c1cccs1
    12%	x	x	8%	-7%	-2%	-1%	31%[activator]
#10 CCC(CC)C(=O)Nc1ccc(OCc2cc(=O)n3ccc(C)cc3n2)cc1
    -18%[46.1 µM]	1.1%	-3%	x	x	x	x	-10%

Down the list, from the results shown.
2A StopGo, entries 1 to 10, in order: 4%, -6%, 5%, -3%, 2%, 10µM*, u, 5%, 31%[activator], -10%

The list continues.
Sequence of screens: Lassa entry inh	Cruzain Triton	Cruzain inh noDet	Marburg entry inh	RE007 growth inh	SARS PLpro yeast	NS1 inh	2A StopGo
#11 COCCNCCCCOc1ccc(Br)cc1C
    u	-1.3%	-6%	u	2%	-13%	-13%	-13%
#12 Cc1ccc(C(=O)OCC(=O)NCCNC(=O)COC(=O)c2ccc(C)s2)s1
    0%	x	x	-10%[46.1 µM]	-4%	-2%	x	-9%
#13 CCOC(=O)c1c(C)[nH]c(C)c1S(=O)(=O)NCCc1ccc(SC)cc1
    x	x	x	x	-12%	4%	-16%	0%
#14 Cc1ccc(P(=O)(O)c2ccc(C)cc2)cc1
    u	3.9%	-3%	u	78%	8%	0%	-21%
#15 CC(C)CCNC(=O)CSc1nc2ccsc2c(=O)n1NC(=O)c1ccccc1
    16%	-6.5%	3%	11%	13%	7%	-9%	48%[activator]
#16 CCCCCc1c(C)nc(Nc2nc(C)c3cc(OC)ccc3n2)[nH]c1=O
    19%	-1.5%	u	-6%	-3%	-2%	u	-28%
#17 O=C(COC(=O)c1cccs1)Nc1ccccc1
    8%	2.4%	-1%	1%	-4%	-2%	-8%	53%[activator]
#18 COc1ccc(-c2c(C)oc3c(CN4CCN(CCO)CC4)c(O)ccc3c2=O)cc1OC
    6%	-4.4%	3%	8%	-8%	-3%	8%	-5%
#19 Cc1ccc(-c2nn(-c3ccccc3)cc2CO)cc1
    u	x	x	13%	-23%	-2%	-4%	39%[activator]
#20 CCN(CC)CCN(C(=O)c1ccc2c(c1)CCCC2)c1nc2cc(OC)c(OC)cc2s1
    -21%[46.1 µM]	x	x	u	3%	2%	-6%	-10%
#21 CC(C(=O)c1ccccc1)C(O)c1ccccn1 (stereo not given)
    u	x	x	u	5%	x	x	20%
#22 Cc1cc(C)c(C#N)c(SCS(=O)Cc2ccccc2)n1 (stereo not given)
    -14%	5.4%	-2%	-1%	-5%	-19%	-7%	x
#23 CCc1ccc(S(=O)(=O)N2CC(=O)Nc3ccccc32)cc1
    10%	2.4%	8%	-21%	-1%	2%	10%	0%
#24 CCc1nc(Nc2cccc(OC)c2)c2oc3ccccc3c2n1
    2%	x	x	2%	15%	-1%	-3%	-24%
#25 O=C(N/N=C\c1ccncc1)c1ccc(Cl)s1
    4%[46.1 µM]	x	x	-15%[46.1 µM]	-3%	-1%	-37%	48%[activator]
#26 CCOc1ccc(C(=O)OCC(=O)N2CCOCC2)cc1OCC
    11%[46.1 µM]	x	x	-3%[46.1 µM]	1%	-1%	-11%	-14%
#27 O=C(N/N=C1/CN2CCC1CC2)c1cc2ccccc2cc1O
    1%	-5.9%	-14%	u	0%	-1%	7%	16%
#28 CN(Cc1ccc(F)cc1)C(=O)c1cccc(NS(=O)(=O)c2ccccc2)c1
    u	x	x	-2%[46.1 µM]	-14%	-3%	22%	16%
#29 Cc1cc(C)nc(N(C#N)Cc2ccccc2C)n1
    x	x	x	x	-6%	0%	-5%	20%
#30 COc1ccc([N+](=O)[O-])cc1NC(=O)c1ccc(CN(c2ccccc2)S(C)(=O)=O)cc1
    -10%	-3.8%	-5%	1%	-2%	24%	u	-20%
#31 COc1cccc(-n2c(-c3cccc(F)c3)nc3c(cnn3-c3ccc(C)cc3)c2=O)c1
    -2%[46.1 µM]	-8.1%	-8%	u	x	x	x	-23%
#32 COc1ccc(OC)c(C2CC(=O)c3c([nH]c(C(=O)OC(C)C)c3C)C2)c1 (stereo not given)
    x	-3.2%	2%	x	0%	-1%	-51%	-5%
#33 Cc1ccc(CCN2CC(C(=O)N3CCN(c4ccc(F)cc4)CC3)CC2=O)cc1 (stereo not given)
    -18%	3.6%	u	8%	9%	2%	-13%	-14%
#34 O=C(NC1CCCCCC1)C1CCN(S(=O)(=O)c2ccc(F)cc2)CC1
    19%	0.6%	-1%	u	6%	-1%	0%	x
#35 Cc1ccccc1C(=O)Nc1sc2c(c1C(=O)O)CCC(C(C)(C)C)C2 (stereo not given)
    u	-4.8%	-16%	u	x	x	x	u
#36 CN(C)C(=O)/C(C#N)=C\c1cc(Br)c(Sc2ccc(Cl)cc2)o1
    -2%	-5.8%	u	u	9%	7%	14%	u
#37 O=C(COc1ccc(F)cc1Br)NCC1(N2CCCCC2)CCCCC1
    23%[46.1 µM]	x	x	u	-19%	2%	x	-19%
#38 COc1cc(NC(=O)CSc2nnc(Cn3nnc4ccccc43)n2C)cc(OC)c1
    -15%	0.1%	16%	-12%[46.1 µM]	8%	14%	4%	-2%
#39 CC1CCN(CC(=O)NCc2ccco2)CC1
    x	x	x	-1%[46.1 µM]	-14%	2%	0%	-5%
#40 CCSc1oc(-c2ccccc2)nc1S(=O)(=O)c1ccccc1
    -12%	3.9%	-9%	-6%	-8%	-5%	-9%	6%

3 of the compounds above, screen by screen:
#15 CC(C)CCNC(=O)CSc1nc2ccsc2c(=O)n1NC(=O)c1ccccc1
#16 CCCCCc1c(C)nc(Nc2nc(C)c3cc(OC)ccc3n2)[nH]c1=O
#17 O=C(COC(=O)c1cccs1)Nc1ccccc1
screen / no.,15,16,17
Lassa entry inh,16%,19%,8%
Cruzain Triton,-6.5%,-1.5%,2.4%
Cruzain inh noDet,3%,u,-1%
Marburg entry inh,11%,-6%,1%
RE007 growth inh,13%,-3%,-4%
SARS PLpro yeast,7%,-2%,-2%
NS1 inh,-9%,u,-8%
2A StopGo,48%[activator],-28%,53%[activator]

Later entries:
Sequence of screens: Lassa entry inh	Cruzain Triton	Cruzain inh noDet	Marburg entry inh	RE007 growth inh	SARS PLpro yeast	NS1 inh	2A StopGo
#41 COc1ccc(OCCSCc2nnc(NC(=O)Nc3ccc(Cl)cc3)s2)cc1
    3%	-2.1%	13µM*	u	9%	0%	3%	-24%
#42 O=C(NCCc1csc(-c2cccnc2)n1)c1ccco1
    x	-10%	-25%	x	7%	-8%	0%	-15%
#43 Fc1ccc(Cn2nnnc2C(c2ccc(Cl)cc2)N2CCSCC2)cc1 (stereo not given)
    -22%	3.5%	9%	u	5%	-15%	-1%	-1%
#44 CCOc1cc2[nH]c(=O)n(Cc3cccc(OC)c3)c(=O)c2cc1OCC
    u	-1.4%	u	u	13%	0%	3%	-11%
#45 CCCOC(=O)C1=C(C)NC2=C(C(=O)C(C(=O)OC)C(C)C2)C1c1ccc(N(CC)CC)cc1 (stereo not given)
    u	-7.6%	11%	u	-2%	10%	-20%	8%
#46 CCOC(=O)c1nc2nc(C)cc(=O)n2[nH]1
    9%	1.0%	-1%	-29%	-2%	1%	u	46%[activator]
#47 CCn1c(C2CC(=O)N(c3cc(C)cc(C)c3)C2)nc2ccccc21 (stereo not given)
    x	1.5%	-3%	x	-5%	-1%	-48%	-15%
#48 O=C(CN1C(=O)c2ccccc2C1=O)NCC(=O)OCC(=O)c1ccc(Cl)cc1
    10%	-5.5%	2%	4%	2%	6%	-8%	-21%
#49 Cc1ccc(O)c(N=Cc2sc3ccccc3c2Cl)c1
    17%	-6.2%	8%	8%	-17%	-2%	-3%	37%[activator]
#50 Cc1ccc(C(N)=Nc2ccccc2)cc1
    x	5.3%	4%	x	x	1%	-8%&4%	-11%
#51 Cc1c(/C(O)=C2\C(=O)C(=O)N(CCN(C)C)C2c2cccs2)cnn1-c1ccccc1 (stereo not given)
    -13%	-0.3%	-3%	u	-3%	1%	-3%	24%
#52 O=C(CCn1nc(-c2ccccc2)ccc1=O)N1CCN(c2ccccc2)CC1
    u	x	x	u	3%	0%	-3%	-21%
#53 CCn1cc(C2=NCC(C)O2)c2ccccc21 (stereo not given)
    -12%	3.8%	2%	22%	-3%	28%	-6%	-1%
#54 Cc1cc(C(=O)N2CCN(c3cccc(Cl)c3)CC2)c(C)o1
    u	-3.1%	-12%	6.3µM*	-23%	4%	-22%	u

Source: PubChem BioAssay (National Center for Advancing Translational Sciences (NCATS))
